MgrA-DNA mod – alters Staphylococcus aureus MgrA binding to DNA | fluorescence polarization | inhibition, %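 (about 10 µg/mL by stock and volumes)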 | hit rate 0.13% among 84,000 | AID 602314;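 active = above 50% in either of two replicates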;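 also: 0% = protein plus DNA without compound and 100% = DNA alone without protein; higher means less MgrA bound to DNA so lower polarization; one replicate is shown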
S aureus helic – S. aureus DNA helicase inhibition. AID 485395. hit rate 0.05% among 120,000. inhibition, %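 (tested at about 80 µM)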. purified S. aureus helicase, fluorescence unwinding assay; about half of the hits fall short of the stated cut;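 active = both duplicates at 50% or more, or one of them with a favoured structure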;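 also: 0% = mean of negative control wells and 100% = mean of positive control wells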
* = called active by the depositor; · = not tested or not shown; & = joins results of further samples. This is a subset; rates above refer to the full screens.

SMILES	MgrA-DNA mod	S aureus helic
Cc1cc(C(=O)COC(=O)c2ccc3c(c2)C(=O)N(CCC(C)C)C3=O)c(C)n1-c1nccs1	·	-5.0
NC(=O)C1CCN(C(=O)CSCc2ccc(Br)cc2)CC1	0.1	5.0
NC(=O)c1cc(S(=O)(=O)NC2CCCCCCC2)cs1	0.8	-7.0
Cc1cc(C)nc(NC(N)=NCc2ccccc2)n1	-0.2	12.0
O=C(CC1CCCC1)Nc1nc2ccccc2s1	·	-1.0
N#CSCCCOc1ccc(Cl)cc1	4.1	13.0
Cc1cccn2cc(CNC(=O)CC3CCCCC3)nc12	·	4.0
Cn1nccc1NC(=O)CC(C)(C)CC(=O)O	-0.2	·
CC(C)(C#N)N1CCN(C(c2ccccc2)c2ccccc2)CC1	0.3	·
COc1cc(-c2nc3ccccc3c(=O)n2NC(=O)c2ccc(Cl)c([N+](=O)[O-])c2)cc(OC)c1OC	-0.3	·
O=C(O)C1CC(=O)N(c2cccc3ccccc23)C1 (stereo unspecified)	-7.4	19.0
O=S(=O)(c1cccs1)N1CCN(Cc2ccccc2)CC1	-1.7	·
NC(=O)c1ccccc1NC(=O)CSc1ccc2ccccc2c1	1.5	5.0
COc1ccc(NC(=O)C2(c3ccc(OC)cc3)CCOCC2)cc1	-2.1	1.0
COC(=O)C1=CN(C2CC2)C=C(C(=O)OC)C1c1cccc(OC)c1	·	11.0
CCNC(=S)Nc1c(C)cc(C)cc1C	0.2	·
O=C(CN1CCN(c2ccccn2)CC1)N(c1ccccc1)c1ccc2ccccc2c1	2.6	-1.0
Cc1ccc2oc(C(=O)O)cc(=O)c2c1	-4.3	·
CC(=O)N1CCc2cc(S(=O)(=O)N=S(C)(=O)c3ccc(C)cc3)ccc21 (stereo unspecified)	3.0	·
CC(C)(C)c1csc(N)n1	0.6	·
N=c1scc(-c2ccccc2)n1-c1cccc(Cl)c1Cl	0.1	·
O=C1CSC(c2cccnc2)N1c1ccc(Cl)c(Cl)c1 (stereo unspecified)	-0.6	·
O=C(Cn1cccc1C(=O)c1ccccc1)NCCCN1CCN(C2CCCCC2)CC1	·	19.0
NC(N)=N/N=C/c1cn(-c2ccccc2)nc1-c1ccccc1	·	-19.0
O=C(Cc1ccccc1)NC1CCN(S(=O)(=O)c2ccc(Cl)cc2)CC1	-0.8	·
Cc1ccc(S(=O)(=O)NC(C)(C)C)cc1	-1.7	·
COc1ccc(CN2CCC(C(=O)NC3CCCC3)CC2)cc1	-3.2	-1.0
Cn1nccc1NS(=O)(=O)c1ccccc1	0.3	·
CCCCC(=O)Nc1ccc(NC(=O)C2CC2)nc1	-1.9	1.0
Cc1nc2c(C(=O)NCCC(C)C)c[nH]n2c(=O)c1Cl	4.5	8.0
Cc1cc2n(n1)C(O)(C(F)(F)F)CC(O)(C(F)(F)F)N2 (stereo unspecified)	-1.1	-4.0
CC(C)(C)C(=O)Nc1c2c(nn1-c1cccc(Cl)c1)CS(=O)C2 (stereo unspecified)	-1.0	6.0
COc1cccc(NC(=S)NNc2ccccc2)c1	7.4	·
COc1ccc(/C=C2\SC(=O)N(CCC(=O)Nc3c(C)n(C)n(-c4ccccc4)c3=O)C2=O)cc1	0.1	·
CC(C)(C)NC(=O)NC(=O)CN1CCCCCCC1	·	9.0
COc1ccc(/C=C/C(=O)O)cc1S(=O)(=O)N1CCCCC1	·	-11.0
O=c1oc2ccccc2n1CN1CCN(Cc2ccccc2)CC1	·	-2.0
Cc1cccc(Oc2ccccc2NC(=O)NC(C)(C)C)c1	·	-7.0
CC(C)C1(C)C(=O)N=C2c3ccccc3C(=O)N21 (stereo unspecified)	0.9	·
COC(=O)CCC(=O)Nc1ccccc1	-1.3	-1.0
COc1ccccc1OCc1nc(C#N)c(N2CC(C)CC(C)C2)o1 (stereo unspecified)	-2.5	15.0
Cc1sc2c(c1C)C(=O)CS(=O)(=O)N2C	2.0	·
O=C1/C(=C/c2ccccc2O)CC/C1=C\c1ccccc1O	4.3	-2.0
CCN(C(=O)Nc1ccccc1)C1CCCCC1	2.6	0.0
O=C(c1cccnc1)N(Cc1ccco1)Cc1cc2ccccc2[nH]c1=O	-2.8	0.0
C=CCSc1nnc(-c2ccccc2N)c(=O)[nH]1	·	-2.0
Cc1ccc(OCCOc2ncnc3sccc23)cc1	·	12.0
Cc1cc(-c2ccc(S(=O)(=O)N3CCC(C)CC3)cc2)on1	·	-27.0
O=S(=O)(c1ccccc1)c1nc(N(CCO)c2ccccc2)sc1Cl	·	15.0
CNCc1cccs1	·	-2.0

Further entries
SMILES	MgrA-DNA mod	S aureus helic
CC(=O)OC(C#N)[C@H]1O[C@@H]2OC(C)(C)O[C@@H]2[C@H]1OC(C)=O (stereo partly specified)	0.9	·
Cc1c(CCC(=O)O)c(=O)[nH]c2ccccc12	3.5	6.0
Cc1cc(CN)c2[nH]c(C)c(C)c2c1	4.2	20.0
CCCCc1c(C)nc(SCc2ccccc2)[nH]c1=O	1.1	3.0
O=C(c1ccc(Cl)c(S(=O)(=O)N2CCOCC2)c1)N1CCN(c2ccccc2F)CC1	·	20.0
CC(CN(C)C)OC(=O)c1ccc2c(c1)OCO2 (stereo unspecified)	1.9	-3.0
Cc1nnc(SCC(=O)Nc2cccc(C(F)(F)F)c2)o1	1.3	-10.0
OCC(O)C1OC(c2ccccc2)OCC1O (stereo unspecified)	-2.0	10.0
O=C1CCc2cc(-c3csc(/N=C/NO)n3)ccc2N1	0.2	·
O=S(=O)(Cc1ccc(Cl)cc1)c1cccs1	2.1	·
N#C/C(=C/C=C/c1ccco1)c1nc2ccccc2[nH]1	14.2	-8.0
COc1ccc(-c2cc(-c3ccc(Br)cc3)[nH]c(=O)n2)cc1	-2.4	12.0
CC(C)(C)OC(=O)NCc1cccs1	2.9	-17.0
CCCc1nnc(NC(=O)c2oc3cc(C)c(C)cc3c2C)s1	·	2.0
O=C(Nc1ccc(-c2nc3ccccc3[nH]2)cc1)c1c(F)cccc1F	·	16.0
C/C(N)=C(/C#N)C(=O)COc1ncnc2c1cnn2-c1ccccc1	·	-1.0
O=C1C2C3C=CC(C3)C2C(=O)N1Nc1ccccc1 (stereo unspecified)	·	-5.0
O=C(CCc1nnc2n(Cc3ccccc3)c(=O)c3ccccc3n12)N1CCN(C(=O)c2ccco2)CC1	·	-13.0
O=C1CC(c2ccco2)CC2=C1C(c1ccco1)N(C(=O)c1ccccc1)c1ccccc1N2 (stereo unspecified)	·	8.0
O=[N+]([O-])c1cc(C(F)(F)F)ccc1Oc1ccc(F)cc1F	-3.7	·

Entries of single compounds from above.
Cc1cc2n(n1)C(O)(C(F)(F)F)CC(O)(C(F)(F)F)N2 (stereo unspecified) reads MgrA-DNA mod: -1.1; S aureus helic: -4.0
Cn1nccc1NC(=O)CC(C)(C)CC(=O)O reads MgrA-DNA mod: -0.2; S aureus helic: ·

Returning to the listing, starting four compounds before the break.
SMILES	MgrA-DNA mod	S aureus helic
O=C1C2C3C=CC(C3)C2C(=O)N1Nc1ccccc1 (stereo unspecified)	·	-5.0
O=C(CCc1nnc2n(Cc3ccccc3)c(=O)c3ccccc3n12)N1CCN(C(=O)c2ccco2)CC1	·	-13.0
O=C1CC(c2ccco2)CC2=C1C(c1ccco1)N(C(=O)c1ccccc1)c1ccccc1N2 (stereo unspecified)	·	8.0
O=[N+]([O-])c1cc(C(F)(F)F)ccc1Oc1ccc(F)cc1F	-3.7	·
Cc1csc(=O)n1CC(=O)OCC(=O)NCc1cccs1	·	-10.0
Cc1ccc(S(=O)(=O)NCC(O)c2ccccc2)cc1 (stereo unspecified)	·	2.0
COc1ccc(C2=NN(C(=O)CCC(=O)O)C(c3ccc(Br)cc3)C2)cc1 (stereo unspecified)	0.8	·
COc1cccc(C(=O)N2c3ccccc3C(Nc3ccccc3)CC2C)c1 (stereo unspecified)	0.2	7.0
O=[N+]([O-])/C=C/c1cccc2ccccc12	11.7	·
CNC(=O)CSc1nc2ccccc2n1-c1ccccc1	·	-3.0
CCOc1ccc(C(=O)N[C@H](C(=O)NC2CCCCC2)C(C)C)cc1	·	-14.0
Cc1cc(N)c(O)cc1C	10.7	10.0
c1ccn2cc(CSC3=NCCS3)nc2c1	·	-2.0
CN(C(=O)COC(=O)c1ccc(S(=O)(=O)N(C)C)cc1)c1ccccc1	·	4.0

Structural class, those above containing a CF3 group.
SMILES	MgrA-DNA mod	S aureus helic
Cc1cc2n(n1)C(O)(C(F)(F)F)CC(O)(C(F)(F)F)N2 (stereo unspecified)	-1.1	-4.0
Cc1nnc(SCC(=O)Nc2cccc(C(F)(F)F)c2)o1	1.3	-10.0
O=[N+]([O-])c1cc(C(F)(F)F)ccc1Oc1ccc(F)cc1F	-3.7	·

Further compounds
SMILES	MgrA-DNA mod	S aureus helic
CN(CC(O)COc1ccc(Br)cc1)C1CCCCC1 (stereo unspecified)	·	14.0
O=C(Nc1ccc(F)c(F)c1)c1cc(S(=O)(=O)NCc2ccc(F)cc2)ccc1F	-1.2	5.0
O=C(/C=C/c1ccccc1)Nc1ccc(S(=O)(=O)Nc2nccs2)cc1	·	11.0
CCN(Cc1ccccc1)C(c1ccccn1)c1nnnn1C(C)(C)CC (stereo unspecified)	0.2	-7.0
Cc1ccc(S(=O)(=O)NC(=O)NC2Cc3ccccc3C2)cc1	-1.1	·
Cc1cc(C(=O)N2CCCc3ccccc32)on1	·	15.0
COc1ccc(OC)c(/C(C)=N/N=C(N)N)c1	·	-5.0
O=C(Nc1ccccc1)OCN1C(=O)c2ccccc2C1=O	2.4	1.0
O=C(O)CCC(=O)NCc1ccccn1	-1.4	19.0
Cc1cccc2c1NC1(CCCC1)CC2C (stereo unspecified)	·	-6.0
Cc1cc2ncn(S(=O)(=O)c3ccc(S(N)(=O)=O)cc3)c2cc1C	-2.4	10.0
CC(C)(C)c1ccc(Cn2c(=N)n(CCO)c3ccccc32)cc1	0.2	-4.0
CC1CCC(C(C)C)C(OC(=O)CN2C(=O)c3ccccc3C2=O)C1 (stereo unspecified)	0.2	2.0
CCOC(=O)c1c[nH]n2c(=O)c3c(nc12)CCCC3	0.7	·
COc1cc(/C=N/c2nccs2)ccc1O	0.9	·
CCN1CCN(C(=O)c2cn(CC)c(=O)c3cc(OC)c(OC)cc23)CC1	·	-18.0
CCOC(=O)C(C(C)C)C(N)Cc1ccc(F)cc1 (stereo unspecified)	·	-8.0
COc1ccc(CCNC(=O)Cc2c(SC)c3ccccc3n2Cc2ccccc2)cc1OC	-3.2	9.0
CC1CCN(CN2C(=S)SC3=NC(=O)CCCN32)CC1	2.2	15.0
CC(NC(=O)C1CCCN(c2nnc(-n3cccc3)s2)C1)c1ccc2c(c1)OCCO2 (stereo unspecified)	-3.0	7.0
COC(=O)C1=C(C)NC(C)=C(C(=O)OC(C)C)C1c1cccc2nonc12 (stereo unspecified)	-2.1	·
CC1(C)C(=O)Nc2ccccc2N1C(=O)COc1ncnc2ccccc12	·	4.0
Cc1nc2c(C(=O)NCC3CCCO3)cnn2c(C)c1Cc1ccc(F)cc1 (stereo unspecified)	·	9.0
COC(=O)Nc1nc2ccc(Sc3ccccc3)cc2[nH]1	0.7&7.1	·
C=CCn1c(SCC(N)=O)nnc1-c1ccccc1O	-1.9	3.0
CCN(CC)c1cc(=O)n2c(n1)SCCC2	·	-27.0
O=[N+]([O-])c1cc(C(F)(F)F)cc([N+](=O)[O-])c1Sc1ccc(Cl)cc1	0.2	·
Cc1cc(C)cc(N=Cc2cc(Br)ccc2O)c1	-2.5	·
O=C(COC(=O)c1ccc(Br)o1)c1ccc(Cl)c(Cl)c1	15.2	7.0
CN1C(C(=O)N2CCCCC2)=CC(c2cccs2)=NS1(=O)=O	·	-24.0
C=C1N(c2ccccc2)C(=O)OC1(C)CC (stereo unspecified)	-2.1	6.0
O=C(Sc1cccs1)C1CC2C=CC1CC2 (stereo unspecified)	1.5	·
COC(=O)c1cc(NC(=O)c2c(C)noc2C)ccc1N1CCOCC1	0.3	·
OC(CSc1nc2ccccc2[nH]1)c1ccccc1 (stereo unspecified)	·	10.0
CSc1nc(N2CCOCC2)nc(-c2ccccc2)c1C#N	2.4	·
CCCn1cnc2scc(-c3ccc(OC)cc3)c2c1=O	2.3	16.0
COc1ccc(N2CCN(C3CC(=O)N(CCc4ccccc4)C3=O)CC2)cc1 (stereo unspecified)	-0.8	1.0
CCCN(C(=O)Cn1ncc2c1-c1ccccc1OC2)c1ccccc1F	·	17.0
CC1=CC(C)(C)N=C(Nc2nc(C)c3cc(C)cc(C)c3n2)N1	0.5	15.0
Nc1ccc(-c2nc3cc(Cl)ccc3o2)c(O)c1	5.3	-1.0
CC1=CC(C(C#N)C#N)C=C(c2ccccc2)O1 (stereo unspecified)	·	11.0
CC(NC(=O)COc1ccccc1)C(=O)O (stereo unspecified)	-0.6	-18.0
O=C(CSc1nc(-c2ccccc2)cc(-c2ccccc2)n1)N=C1NC(=O)CS1	·	15.0
c1ccc(N2CN3CN2CN3c2ccccc2)cc1	-0.1	10.0
COc1ccc(C(=O)NN2CC(=O)N(C(C)C)C2=O)c2ccccc12	-1.1	-9.0
Cn1c(C(C#N)c2cnn(-c3ccccc3)c(=O)c2Br)nc2ccccc21 (stereo unspecified)	·	1.0
Cc1ccc(/C=C2/NC(=O)N(Cc3ccc(Br)cc3)C2=O)o1	1.2	-4.0
O=C(O)C(Cc1cnc[nH]1)NC1CNN=C1c1ccc(Cl)cc1 (stereo unspecified)	-0.1	-12.0
NC(=O)C1CCCN(C(=O)Nc2c[nH]c3ccccc3c2=O)C1 (stereo unspecified)	-0.9	11.0
COc1ccc(C2CC(=O)C3=C(C2)Nc2ccccc2NC3c2ccc(O)c([N+](=O)[O-])c2)cc1OC (stereo unspecified)	0.8	·
CCOC(=O)NC(=S)Nc1ccc(NC(=O)c2cc(Cl)ccc2O)c(Cl)c1	1.4	2.0
CCn1c(=O)c(CCc2ccccc2)nc2cc(S(=O)(=O)N(C)C)ccc21	·	-5.0
